# Screens from PubChem BioAssay.
# Lassa entry inh – qHTS for Inhibitors of binding or entry into cells for Lassa Virus | Potency, µM (highest dose often 37.9 µM), for the others: top-dose activity change, negative = inhibition, usual class: inhibitors | AID 540256, 2011 | Lassa virus pseudotype entry inhibition, cell reporter; control for the full effect not named in the record | 1.2% of 300,000 active; active means well fitted inhibition curve with a large enough effect; inconclusive means small, poorly fitted or top-dose-only effect, or effect the other way; inactive means flat fitted curve, though single readings scatter; tested in HEK293 cells; further: on the % scale 0 is the no-effect control and ±100 the full control effect; nearly all actives have a fitted effect of over 50% in size; luciferase read-out
# NS1 inh – qHTS Assay for Inhibitors of Influenza NS1 Protein Function. S. cerevisiae slowed by influenza A NS1, growth recovery by OD600. Potency, µM (top dose mostly 46.1 µM), inactives show at the top dose activity, positive = more growth. 0.4% of 270,000 active; active means well fitted rising curve with a large enough effect; inconclusive means small, poorly fitted or top-dose-only effect; inactive means no such curve, though single readings can be large or run the other way; further: nearly all actives have a fitted effect of over 50% in size
#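 Compounds were scored for reversing the slow growth caused by influenza A NS1 in S. cerevisiae, measured by optical density at 600 nm. Assay medium contained 2% galactose at pH 6.0; NS1-free yeast of the same strain were the positive control.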
# RE007 growth inh – qHTS Assay for Inhibitors of the HIV-1 protein Vpr; S. pombe RE007 Vpr strain, BacTiter-Glo ATP luminescence, 24 h; control for the full effect not named in the record; Potency, µM (highest dose often 92.2 µM), without a hit: top-dose activity change, negative = less growth; 0.21% of 360,000 active; AID 651644, 2012; active = well fitted falling curve with a large enough effect; inconclusive = small, poorly fitted or top-dose-only effect; inactive = no such curve, though single readings can be large or run the other way;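 further: on the % scale 0 is the no-effect control and ±100 the full control effect; nearly all actives have a fitted effect of over 50% in size; the assay follows cell death caused by Vpr and the record does not say whether a fall means rescue or toxicity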
#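 Fission yeast strain RE007, carrying one chromosomally integrated HIV-1 vpr copy, was seeded at OD 0.01 in PMG+AL medium with 23 nL pinned compound. After 24 h at 30 °C and 99% humidity, viability was read by BacTiter-Glo luminescence.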
# StopGo reporter – High Throughput Screening for Foot and Mouth Disease Virus Antivirals. Potency, µM (titrated, usually from 57.9 µM), for inactives: at the highest dose signal change, negative = less light. 1.2% of 410,000 active. human cells with a luciferase reporter of 2A StopGo recoding; control for the full effect not named in the record; active = well fitted falling curve with a large enough effect; inconclusive = small, poorly fitted or top-dose-only effect; inactive = no such curve, though single readings can be large or run the other way; tested in HEK293T cells; further: on the % scale 0 is the no-effect control and ±100 the full control effect; nearly all actives have a fitted effect of over 45% in size; luciferase light after 4 h
# Cruzain noTriton – qHTS Assay for Promiscuous and Specific Inhibitors of Cruzain (without detergent); Potency, µM, inactives show max response, negative = inhibition, most hits filed as inhibitors; 2.3% of 200,000 active; AID 1476, 2009; purified cruzain, Z-FR-AMC fluorescence, no detergent; Cruzipain (Trypanosoma cruzi), P25779;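 further: plate controls were enzyme without inhibitor for no effect and buffer without enzyme for full effect; nearly all actives have a fitted effect of over 40% in size; top concentration of the series not given in the record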
# Target sequence (P25779 123-467 limits assumed): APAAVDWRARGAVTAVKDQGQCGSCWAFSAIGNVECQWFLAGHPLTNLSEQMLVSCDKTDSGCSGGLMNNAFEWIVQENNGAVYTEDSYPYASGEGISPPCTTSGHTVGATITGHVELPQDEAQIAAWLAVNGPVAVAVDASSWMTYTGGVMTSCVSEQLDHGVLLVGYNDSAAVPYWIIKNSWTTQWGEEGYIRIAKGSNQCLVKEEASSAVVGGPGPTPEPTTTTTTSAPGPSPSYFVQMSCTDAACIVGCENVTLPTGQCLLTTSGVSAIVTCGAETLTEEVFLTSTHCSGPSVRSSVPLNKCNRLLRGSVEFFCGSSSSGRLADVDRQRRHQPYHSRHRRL
#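 Purified cruzain at 1.5 nM, pre-incubated 15 min with compound at room temperature in 100 mM sodium acetate pH 5.5, 5 mM DTT, 0.00005% Triton X-100. Reaction started with 2 uM Z-FR-AMC; AMC fluorescence increase over 60 s gives rate.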
# Cruzain inh Det – qHTS Assay for Promiscuous and Specific Inhibitors of Cruzain (with detergent) | purified cruzain, Z-FR-AMC fluorescence, 0.01% Triton | Cruzipain (Trypanosoma cruzi), P25779 | 0.43% of 200,000 active | Potency, µM, for inactives: max response, negative = inhibition, usual class: inhibitors | AID 1478, 2009;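 further: plate controls were neutral wells for no effect and buffer without enzyme for full effect; nearly all actives have a fitted effect of over 40% in size; top concentration of the series not given in the record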
#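 Detergent-containing arm of a paired screen for aggregation-based inhibition: 0.01% Triton X-100 present. Cruzain at 1.5 nM cleaved 2 uM Z-FR-AMC at pH 5.5 with 5 mM DTT; AMC fluorescence gain over 60 s measured activity.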
# SARS PLP yeast – qHTS of Yeast-based Assay for SARS-CoV PLP. 0.19% of 330,000 active. S. cerevisiae expressing SARS-CoV PLpro, growth rescue; control for the full effect not named in the record. Potency, µM (titrated, usually from 32.9 µM), inactives show top-dose activity, positive = growth rescue; active means well fitted rising curve with a large enough effect; inconclusive means small, poorly fitted or top-dose-only effect; inactive means no such curve, though single readings can be large or run the other way; further: 0% is about no effect; nearly all actives have a fitted effect of over 55% in size; growth read by luminescence after 48 h
# Marburg entry inh – qHTS for inhibitors of binding or entry into cells for Marburg Virus; 1.8% of 300,000 active; AID 540276, 2011; Potency, µM (series often up to 37.8 µM), for inactives: at the highest dose activity change, negative = inhibition, hits mostly inhibitors; Marburg virus pseudotyped entry inhibition, cell reporter; control for the full effect not named in the record; about a third of the inactives were read at about 46 µM; active = well fitted inhibition curve with a large enough effect; inconclusive = small, poorly fitted or top-dose-only effect, or effect the other way; inactive = flat fitted curve, though single readings scatter; tested in HEK293 cells; about a fifth of its hits are not listed in these tables; further: on the % scale 0 is the no-effect control and ±100 the full control effect; luciferase read-out
# Starred values were filed as active, the others as inactive; ? = inconclusive; . = no result given; & = joins results of further samples; [ ] = remark or other dose. Unless noted, the call rests on the fitted dose curve; in most records, active means well fitted curve in the direction sought with a large enough effect; inconclusive means small, poorly fitted or top-dose-only effect, or another doubt; inactive means no such curve, though single readings can be large; an effect the other way counts as inactive or inconclusive. Potency means the concentration at half of the fitted maximal effect.
smiles,StopGo reporter,Cruzain inh Det,NS1 inh,Cruzain noTriton,Lassa entry inh,Marburg entry inh,SARS PLP yeast,RE007 growth inh
O=C(Nc1ccc(F)cc1)N(Cc1cccs1)Cc1cc2cc3c(cc2[nH]c1=O)OCO3,17.8µM*,-8.4%,7.0%,?,?,?,6.2%,-10.6%
CCOC(=O)c1ccc(NC(=O)COC(=O)c2cn(CC)c3nc(C)ccc3c2=O)cc1,11.4%,-2.2%,.,9.1%,0.6%[46.1 µM],5.6%[46.1 µM],.,.
CN1CCN(Cc2cc(=O)n3ccsc3n2)CC1,-11.8%,.,-3.4%,.,-5.2%[46.1 µM],5.8%[46.1 µM],2.2%,-2.2%
CCOC(=O)c1ccc(-n2c(=O)[nH]c3ccccc3c2=O)cc1,9.7%,-0.4%,-0.9%,-4.1%,-5.1%,-9.0%&-9.0%,9.7%,0.0%
Cc1cc(C)c(C#N)c(Oc2ccc(F)cc2)n1,-24.1%,0.2%,-18.3%,0.1%,-14.1%,-2.0%,-5.2%,?
Cc1cc(OCC(=O)NC2CCN(Cc3ccccc3)CC2)c2c(C)cc(=O)oc2c1,-8.7%,.,-3.7%,.,?,?,2.2%,-0.8%
COc1cc(/C=N/NC(=O)c2cccnc2)ccc1OC(=O)c1ccc([N+](=O)[O-])cc1,-5.2%,.,.,.,13.3%[46.1 µM],8.3%[46.1 µM],1.7%,6.0%
NC(=O)c1ccc(NC(=O)CN2CCOCC2)cc1,4.6%,.,22.2%,.,.,.,19.6%,-5.7%
COC(=O)C(CCSC)NC(=O)c1c(C)oc2ncn(CC(C)C)c(=O)c12 (stereo not given),-10.3%,-1.8%,.,-6.0%,4.2%[46.1 µM],.,.,.
CCCOC(c1ccccc1)(c1ccccc1)C(Oc1nc(C)cc(C)n1)C(=O)O (stereo not given),-17.8%,.,?,.,.,.,-7.2%,0.4%
COC(C(=O)N/N=C(\C)c1ccc(O)cc1)c1ccccc1 (stereo not given),3.1%,.,9.7%,.,.,.,5.1%,-0.9%
C[c-]1[c-](C)[c-](C)[c-](C)[c-]1C.[Fe].c1cc2nccc(N3CCCC3)[c-]2c1 (stereo not given),0.0%&-18.7%,.,-5.7%&-10.2%,.,.,.,6.2%&-4.3%,-15.7%&10.0%
Cc1ccc(NC(=S)c2ccncc2)c(C)c1,-10.2%,.,-10.4%,.,.,.,-24.7%,2.6%
CC(=O)Oc1ccc(NC(=O)C2CCCCC2)c(C(=O)O)c1,-7.0%,5.6%,5.0%,-2.0%,?,15.8%,0.5%,4.1%
CC1=NN(c2cccc(Cl)c2)C(=O)C1,-18.7%,.,-3.4%,.,8.4%[46.1 µM],-0.8%[46.1 µM],-0.6%,-26.9%
Cc1ccc(-n2nc(-c3ccccc3)cc2Nc2ccccc2N)cc1,-10.7%,-8.4%,?,?,24.4%,?,-31.5%,5.9%
CCOC(=O)C(NC(=O)c1ccccc1)C(C)(C)SCc1ccccc1 (stereo not given),0.0%,.,.,.,-27.6%,-21.8%,.,23.3%
CN1CCc2c(sc(NC(=O)C3CCN(S(=O)(=O)c4cccs4)CC3)c2C(N)=O)C1,12.4%,.,.,.,?,1.9%,-4.0%,15.1%
CNn1cnc2ccsc2c1=O,19.9%,.,11.1%,.,-10.2%,-2.6%,-0.7%,1.3%
Cc1c(C)c(C)c(/C=[N+](/C)[O-])c(C)c1C,-16.3%,2.3%,0.5%,0.1%,3.4%,?,7.5%,0.8%
CC(CNC(=O)c1ccc(Cn2c(=O)c3cccn3c3cccnc32)cc1)c1ccccc1 (stereo not given),-25.8%,0.4%,.,2.5%,-16.2%[46.1 µM],.,.,.
COc1cc(C2N(c3ccc(Cl)c(Cl)c3)C(=O)C3CCCN32)cc(OC)c1OC (stereo not given),-18.1%,-1.2%,-33.8%,?,?,-10.5%,-8.9%,-25.1%
Cc1nn(-c2ccccc2)c(CC(C)(C)C(=O)O)c1C(=O)O,-3.8%,0.4%,4.2%,-4.2%,-3.7%,?,-15.4%,9.6%
COc1cccc(C(=O)N2c3cc(C)ccc3C(C)(c3ccccc3)CC2(C)C)c1 (stereo not given),?,-6.1%,.,?,?,.,.,.
CCCCCOC(=O)C1=C(C)Nc2ncnn2C1c1cccs1 (stereo not given),?,5.4%,5.8%,-3.6%,20.6µM*,?,-0.6%,4.0%
COc1ccc2ccccc2c1/C=N/NC(=O)c1cccc(Br)c1,0.0%,-4.4%,-1.7%,?,-11.1%,-0.3%,-23.7%,-7.8%
Cc1ccccc1NC(=O)N1C2CCC1CC(O)(c1cccnc1)C2 (stereo not given),4.3%,6.7%,-0.1%,1.8%,2.2%,5.8%,2.6%,5.3%
Cc1cccc2c(=O)cc(CSc3ccccc3NC(=O)c3cccc(F)c3)[nH]c12,6.0%,1.8%,.,0.9%,2.0%[46.1 µM],.,.,.
COc1cccc(NC(=S)N(CCCN2CCN(C)CC2)Cc2ccco2)c1,10.7%,.,-3.3%,.,.,-2.0%[46.1 µM],3.4%,-19.1%
COc1ccccc1CC(NC(C)=O)C(=O)NC1CCN(C(=O)c2cccc(Cl)c2)CC1 (stereo not given),5.1%,.,16.2%,.,.,?,16.4%,-8.6%
COc1cc2c(C(=O)N3CCCc4ccccc43)cn(C)c(=O)c2cc1OC,16.9%,-1.5%,-29.0%,-10.7%,-17.2%,-38.4%,-0.5%,-0.4%
Cc1cc(-c2nnc(SCC(=O)Nc3ccc(F)c(F)c3)n2N)n[nH]1,6.1%,.,-3.3%,.,8.0%[46.1 µM],-20.2%[46.1 µM],-2.6%,-6.9%
CN(C)c1ccc(S(=O)(=O)NCC(=O)NCC2CCCCC2)cc1[N+](=O)[O-],25.9%,.,-6.9%,.,4.5%,5.9%,4.2%,-10.8%
C/C(=N\NC(=O)c1ccc(Cl)cc1)c1ccc(Br)s1,51.8%[activator],5.3%,-19.3%,?,?,-33.3%,-3.7%,-13.6%
Cc1ccc(CNC(=O)CCCc2nc3ccccc3s2)cc1,2.2%,-6.9%,2.8%,-1.0%,?,?,-6.2%,-10.9%
CC(C)Cc1ccc(C(C)C(N)=Nc2ccc(O)cc2)cc1 (stereo not given),-16.6%,.,.,.,?,?,.,-2.5%
COc1ccc(-n2c(SCC(=O)Nc3ccccc3)nc(O)cc2=O)cc1,37.4%[activator],.,?,.,.,.,2.5%,-7.1%
O=S(=O)(/N=C(/Nc1ccc(F)cc1F)c1ccc(Cl)cc1)c1ccccc1,6.1%,4.8%,10.0%,?,0.7%,-0.2%,-3.0%,18.4%
CCOC(=O)c1c(NC(=O)CCC(=O)NCc2ccco2)sc2c1CCCC2,12.6%,-14.9%,-26.4%,?,-5.3%,?,-3.6%,-4.1%
CC(C)c1ccc(/C=N/NC(=O)c2cc(-c3cccc([N+](=O)[O-])c3)n[nH]2)cc1,-24.1%,.,2.2%,.,-27.3%,2.2%,0.1%,0.2%
COc1ccc(S(=O)(=O)N(CC(=O)NCc2ccco2)C2CCCCC2)cc1OC,.,-2.8%,-5.3%,14.8%,-26.6%,?,-1.8%,-6.0%
OCCN1CCN(c2ncnc3c2sc2nc(N4CCOCC4)c4c(c23)CCC4)CC1,.,-2.5%,-13.3%,1.5%,-10.9%,?,-1.5%,-8.9%
C(=C\N1CCCCCC1)/c1nnnn1-c1ccc(-c2ccccc2)cc1,-13.4%,.,7.3%,.,?,-10.3%[46.1 µM],-0.9%,31.3%
CCN1CCN(Cc2ccc(C)cc2)CC1,-16.6%,5.9%,0.6%,-12.9%,-3.7%,-16.0%,11.2%,-3.7%
Clc1ccc2nc(CSCc3ccccc3)cn2c1,21.9%,.,.,.,-15.3%[46.1 µM],-10.1%[46.1 µM],-0.4%,8.2%
Cc1ccc(S(=O)(=O)N2CCOCC2)cc1NC(=O)CNc1ccccc1N1CCCC1=O,-12.6%,.,.,.,4.4%,-24.1%,-2.0%,-11.0%
Cc1ccccc1C(=O)NC1CCN(CC(=O)Nc2ccccc2Cl)CC1,3.4%,.,7.4%,.,.,.,-0.4%,3.2%
Cn1cnc(S(=O)(=O)N2CCC(C(=O)Nc3ccc(Cl)c(C(F)(F)F)c3)CC2)c1,?,-7.0%,.,7.3%,17.7%[46.1 µM],.,.,.
O=C(NN1CCOCC1)c1cc(Cl)ccc1Cl,-6.6%,.,1.4%,.,4.0%[46.1 µM],22.1%[46.1 µM],0.6%,16.2%
Cc1cc(C)n(-c2nc3ccccc3nc2Nc2ccc(Cl)c(Cl)c2)n1,-2.6%,0.6%,.,-2.2%,2.6%[46.1 µM],-15.7%[46.1 µM],.,.

# Other entries
smiles,StopGo reporter,Cruzain inh Det,NS1 inh,Cruzain noTriton,Lassa entry inh,Marburg entry inh,SARS PLP yeast,RE007 growth inh
O=C(CSc1nnc(NC(=O)c2ccccc2F)s1)NCC1CCCO1 (stereo not given),-0.1%,.,18.0%,.,-7.9%,?,9.0%,-5.0%
COc1ccc(CN2CCC(C(=O)Nc3ccc(Oc4cccnc4)cc3)CC2)cc1,?,.,-10.2%,.,?,?,4.2%,0.0%
O=C(CSC1=NC(=O)C(c2ccccc2)C(=O)N1)Nc1ccccc1[N+](=O)[O-] (stereo not given),-0.8%,.,.,.,-1.5%,10.0%,3.9%,24.6%
O=C(NCc1ccco1)/C(=C/c1ccco1)NC(=O)c1ccco1,21.7%,.,.,.,3.7%[46.1 µM],-7.6%[46.1 µM],0.7%,0.3%

# Hits appear at their usual frequency, and some 4.8% of all compounds hit somewhere here.
